High-throughput results as filed in PubChem.
CBX7 inh – inhibitors of human CBX7 binding to H3K27me3 peptide. O95931. AlphaScreen His6-CBX7 / biotin-H3K27me3 peptide binding; stronger effect = lower value. normalised signal (fraction of DMSO) (no concentration beside the values). hit rate 1.1% among 66,000; in the data active = normalised signal below about 0.5;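 also: 100 nL library stock added to about 20 µL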
Target sequence (O95931 whole entry, looked up): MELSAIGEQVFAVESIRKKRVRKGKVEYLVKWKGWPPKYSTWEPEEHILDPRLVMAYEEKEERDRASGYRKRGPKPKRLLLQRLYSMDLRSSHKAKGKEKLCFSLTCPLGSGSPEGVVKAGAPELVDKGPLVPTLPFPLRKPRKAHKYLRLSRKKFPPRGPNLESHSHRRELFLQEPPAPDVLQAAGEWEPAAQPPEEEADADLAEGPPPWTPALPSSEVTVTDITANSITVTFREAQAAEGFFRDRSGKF
CBX7 inh z-score – further read-out of CBX7 inh, marked with its call; z-score; measured here: z-score of CBX7 signal; some inactives read as strong as hits; reference of the scale not given here;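 same signal on another scale; lower means less binding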
Starred values were filed as active, the others as inactive; & = joins results of further samples. An excerpt, so the mix of outcomes need not match the whole.

A first look (15 entries):
SMILES | CBX7 inh | CBX7 inh z-score
CCN(CC)c1nc(C)nc2sc(C(=O)Nc3cc(Cl)ccc3OC)c(C)c12 | 1.1 | 1.9
CCCCOc1cccc(C(=O)Nc2ccc(-c3nc4cc(Cl)ccc4o3)cc2)c1 | 1 | 0.69
CCN(CC)C(=O)C(=O)NC(C)C(c1cccs1)N1CCOCC1 (centres undefined) | 1 | 0.35
CCOC(=O)c1sc2ncnc(N3CCCC(C)C3)c2c1C (centres undefined) | 1 | 1
Cn1c(=O)c(Cc2ccccc2Br)nc2ccccc21 | 0.97 | -0.32
Clc1ccc2nc3c(c(NCCCN4CCOCC4)c2c1)CCCC3 | 1.1 | 0.077
CC1CCCN(S(=O)(=O)c2ccc3[nH]c(=O)cc(C(=O)NCCN4CCCCCC4)c3c2)C1 (centres undefined) | 1 | 0.38
CCOc1c(Br)cc(C2CC(=O)Nc3cc(OC)c(OC)cc32)cc1OC (centres undefined) | 0.8 | -2.5
CCOC(=O)C1CCN(C(=O)Cc2c(C(=O)O)[nH]c3ccc(Cl)cc23)CC1 | 1 | 0.08
CCc1ccc(NC(=O)CCc2c(C)nc3nc(C)nn3c2C)cc1 | 0.97 | -0.11
CCC1CCCCN1C(=O)c1cn(C)c(=O)c2cc(OC)c(OC)cc12 (centres undefined) | 1 | 1.5
Cc1ccc(N2C(=O)c3ccccc3C2Nc2ccc(Cl)cc2)nc1 (centres undefined) | 1 | 0.58
CC(C(=O)O)C1Sc2ccccc2N(Cc2ccc(F)cc2Cl)C1=O (centres undefined) | 0.99 | -0.29
O=C(Nc1nccs1)C(=O)c1c[nH]c2ccccc12 | 0.93 | -2
O=C(CSc1nnc(-c2cccnc2)n1Cc1ccccc1)c1c[nH]c2ccccc12 | 1.1 | 1.9

This part in full, repeating the preview:
SMILES | CBX7 inh | CBX7 inh z-score
CCN(CC)c1nc(C)nc2sc(C(=O)Nc3cc(Cl)ccc3OC)c(C)c12 | 1.1 | 1.9
CCCCOc1cccc(C(=O)Nc2ccc(-c3nc4cc(Cl)ccc4o3)cc2)c1 | 1 | 0.69
CCN(CC)C(=O)C(=O)NC(C)C(c1cccs1)N1CCOCC1 (centres undefined) | 1 | 0.35
CCOC(=O)c1sc2ncnc(N3CCCC(C)C3)c2c1C (centres undefined) | 1 | 1
Cn1c(=O)c(Cc2ccccc2Br)nc2ccccc21 | 0.97 | -0.32
Clc1ccc2nc3c(c(NCCCN4CCOCC4)c2c1)CCCC3 | 1.1 | 0.077
CC1CCCN(S(=O)(=O)c2ccc3[nH]c(=O)cc(C(=O)NCCN4CCCCCC4)c3c2)C1 (centres undefined) | 1 | 0.38
CCOc1c(Br)cc(C2CC(=O)Nc3cc(OC)c(OC)cc32)cc1OC (centres undefined) | 0.8 | -2.5
CCOC(=O)C1CCN(C(=O)Cc2c(C(=O)O)[nH]c3ccc(Cl)cc23)CC1 | 1 | 0.08
CCc1ccc(NC(=O)CCc2c(C)nc3nc(C)nn3c2C)cc1 | 0.97 | -0.11
CCC1CCCCN1C(=O)c1cn(C)c(=O)c2cc(OC)c(OC)cc12 (centres undefined) | 1 | 1.5
Cc1ccc(N2C(=O)c3ccccc3C2Nc2ccc(Cl)cc2)nc1 (centres undefined) | 1 | 0.58
CC(C(=O)O)C1Sc2ccccc2N(Cc2ccc(F)cc2Cl)C1=O (centres undefined) | 0.99 | -0.29
O=C(Nc1nccs1)C(=O)c1c[nH]c2ccccc12 | 0.93 | -2
O=C(CSc1nnc(-c2cccnc2)n1Cc1ccccc1)c1c[nH]c2ccccc12 | 1.1 | 1.9
CCN(CCNC(=O)c1csc2c1CCCC2)c1ccccc1 | 0.98 | -0.7
CCC1=Nc2cc(C(=O)O)ccc2Sc2ccccc21 | 0.99 | -0.24
O=C1CN(C(=O)COc2ccccc2)C(c2ccccc2)c2cc(F)ccc2N1 (centres undefined) | 1 | 0.48
Cc1ccc(C)c2[nH]c(=O)c(CCNC(=O)Cc3ccc(F)cc3)cc12 | 1 | 0.8
O=C(CSc1nccn1-c1ccc(Cl)cc1)Nc1cccc2ccccc12 | 0.68 | -2.5
Cc1cc(N2CCC(C)CC2)nc2ccc(NC(=O)CCC(=O)N3CCCCCC3)cc12 | 0.83 | -7.6
Cc1oc(-c2ccc(Cl)cc2)nc1CN1CCC(C(=O)NCCN2CCCCC2C)CC1 (centres undefined) | 1 | 0.94
CCOCCCNC(=O)C1CCN(c2nc3ccc(CC)cc3s2)CC1 | 1.1 | 0.11
CC1=CCC(c2cnc(-c3ccccc3)c(C)c2)N(C)C1c1ccccc1 (centres undefined) | 1.1 | 1.9
N#Cc1nc(-c2ccccc2)oc1NCc1ccccc1 | 0.96 | -0.45

Reformatted as a markdown table: part of the list above.
| Compound | CBX7 inh | CBX7 inh z-score |
| --- | --- | --- |
| CCOC(=O)c1sc2ncnc(N3CCCC(C)C3)c2c1C (centres undefined) | 1 | 1 |
| Cn1c(=O)c(Cc2ccccc2Br)nc2ccccc21 | 0.97 | -0.32 |

More results follow:
SMILES | CBX7 inh | CBX7 inh z-score
CCN(CCCNC(=O)C1C2C=CC3(CN(Cc4ccccc4Cl)C(=O)C13)O2)c1cccc(C)c1 (centres undefined) | 1 | 0.38
Cc1ccc2oc(-c3ccc(C)c(NC(=O)c4cccc(Br)c4)c3)nc2c1 | 1.1 | 2.6
COc1cc(OC)c(NC(=O)C2CCCN(c3nnc(-n4cccc4)s3)C2)cc1Cl (centres undefined) | 1 | 0.94
CN1C(=O)CSc2ccc(NC(=O)N3CCC(N4CCCCC4)CC3)cc21 | 1 | 0.7
Fc1ccccc1Nc1nc(Cc2ccccc2)nc2sc3c(c12)CCCC3 | 1.2 | 5.7
COc1ccc(-c2noc(COc3ccc(Br)cc3Cl)n2)cc1 | 1.1 | 1.4
Cc1nc(-c2cccc(NS(=O)(=O)c3ccc4ccccc4c3)c2)cs1 | 1 | 0.4
O=C1C2CC=CCC2C(=O)N1c1ccc(Cc2ccncc2)cc1 (centres undefined) | 1.1 | 1.1
Cc1cccc(C)c1NC(=O)Cn1c(S(=O)(=O)CC(N)=O)nc2ccccc21 | 1.2 | 2.7
COc1cccc(Nc2nc(C)nc3sc4c(c23)CCCC4)c1 | 0.75 | -0.33
CC(C)CC(=O)Nc1ncc2c(n1)CC(C)(C)CC2=O | 1&1 | 1.1&0.076
O=C(O)C1CCN(c2nc3ccccc3n2Cc2ccc(F)cc2)CC1 | 0.93 | -0.5
COc1cccc(-c2nc(-c3ccc(Cl)cc3)no2)c1OC | 0.87 | -1.4
Cc1nc2c(-c3ccccc3)c(C)nn2c(C)c1CCC(=O)NC(C)c1ccccc1 (centres undefined) | 1.2 | 2.6
O=C(O)CCc1ccc(-c2cccs2)n1-c1cccc(C(F)(F)F)c1 | 0.92 | -1.4
Cc1ccc(-c2nc(S(=O)(=O)c3ccc(F)cc3)c(SCC(=O)Nc3ccc(F)cc3)o2)cc1 | 1 | 0.093
Cc1ccccc1Nc1nc(-c2ccc(Cl)c(Cl)c2)cs1 | 0.85&0.72 | -2.4&-6
O=C(NC1CCCC1)c1ccc2c(c1)N(Cc1ccc(Cl)cc1)C(=O)c1ccccc1S2=O (centres undefined) | 1 | 0.66
Cn1c(=O)c(=O)n(C)c2cc(S(=O)(=O)Nc3cccc(C(F)(F)F)c3)ccc21 | 1 | 0.51
O=C(Nc1ccc(F)cc1)C1(S(=O)(=O)c2ccc(Cl)cc2)CC1 | 1 | -0.087
CC1CCCCN1CCNC(=O)c1cc(=O)[nH]c2ccc(S(=O)(=O)N3CCCCC3C)cc12 (centres undefined) | 1.1 | 3.5
CN1CCN(C(=O)c2cc(-c3ccc(Br)cc3)on2)CC1 | 1.1 | 0.069
COc1ccc(OC)c(CN(C)CCc2ccccn2)c1 | 0.96 | -0.28
O=C(CCc1nc2ccccc2n(Cc2c(F)cccc2Cl)c1=O)NC1CCCCC1 | 0.99 | -0.053
CC(=O)N1CCc2cc(S(=O)(=O)NC(CC(C)C)C(=O)N3CC(C)CC(C)C3)ccc21 (centres undefined) | 0.98 | -0.24
Other records
SMILES | CBX7 inh | CBX7 inh z-score
CCCc1cc(=O)n(-c2nc3ccccc3s2)[nH]1 | 0.87 | -0.6
CCN1CCN(CCCNC2CC(=O)N(c3ccc(OC)cc3)C2=O)CC1 (centres undefined) | 1 | 0.78
COc1ccc(-c2nnc(NC(=O)Nc3cccc(Cl)c3)s2)cc1OC | 1 | 0.38
Cc1nc(Nc2ccc(S(N)(=O)=O)cc2)sc1C(=O)Nc1ccccc1 | 0.88 | -2.4
CCOCCCNC(=O)CS(=O)(=O)Cc1nc(-c2ccccc2Cl)oc1C | 1 | 0.89
O=S(=O)(c1cccc(-c2cn3ccccc3n2)c1)N1CCCCC1 | 0.99 | -0.48
COc1ccc(NC(=O)c2cc(CC(C)C)on2)cc1OC | 0.99 | -0.19
O=C(CSc1ncc(-c2ccccc2)[nH]1)Nc1ccc(F)cc1 | 0.78 | -5.9
O=C(CSc1ncc(-c2ccc(Cl)cc2)[nH]1)NC1CCCCC1 | 0.87 | -0.31
O=C(NCC1CCCO1)c1cc(-c2ccncc2)nc2ccc(S(=O)(=O)N3CCOCC3)cc12 (centres undefined) | 1.1 | 0.6
Cc1ccc2c(c1)C(c1ccccc1)N(C(=O)c1ccc(Cl)cc1Cl)CC(=O)N2 (centres undefined) | 1 | -0.0036
CC(C(=O)O)C1Sc2ccccc2N(Cc2ccccc2F)C1=O (centres undefined) | 1.2 | 3.9
O=C(NCc1ccccc1Cl)C1CCN(c2nnc(-n3cccc3)s2)CC1 | 0.71 | -1.2
COc1ccc(CCNC(=O)C2CCN(S(=O)(=O)c3ccc(C)cc3)CC2)cc1 | 1.1 | 2.9
CCOC(=O)c1[nH]c2c(c1Cc1ccccc1)C(=O)CC(c1ccccc1Cl)C2 (centres undefined) | 0.91 | -0.57
CCOc1cc2[nH]c(=O)n(CCC(=O)N3CCN(c4ccccn4)CC3)c(=O)c2cc1OCC | 0.97 | -0.58
O=C(c1ccc2c(=O)n3c(nc2c1)CCCCC3)N1CCN(c2ccc(Cl)cc2)CC1 | 0.86 | -2.3
COc1cc2c(C(=O)N3CCCCCC3)cn(C)c(=O)c2cc1OC | 1.1 | 2.5
CCn1cnc2cc(NCc3cccc(Br)c3)ccc21 | 0.45* | -16*
Cc1cc(NC(=O)c2cc(Cl)ccc2Nc2ccccc2)no1 | 0.98 | -0.079
CCN(CC)S(=O)(=O)c1ccc(C(=O)Nc2sc3c(c2C(=O)OC)CCN(C)C3)cc1 | 1 | 1.7
O=C(CC1Sc2ccccc2NC1=O)Nc1ccc(F)cc1F (centres undefined) | 1.1 | 1.4
c1ccc(-c2ccc(C3CC(c4cccs4)n4nnnc4N3)cc2)cc1 (centres undefined) | 0.84 | -5.7
Fc1ccccc1N1CCN(c2nc(-c3ccccc3)cs2)CC1 | 1.1 | 1.8
CC(C)(Cc1c(C(=O)O)cnn1-c1ccccc1)C(=O)Nc1ccccc1 | 1 | -0.056
Next part:
SMILES | CBX7 inh | CBX7 inh z-score
Cc1cc(N2C(=O)c3ccccc3C2=O)nc(=O)[nH]1 | 1 | 0.43
Cn1nc(-c2ccc(Cl)cc2)c2cc(C(=O)NCCCN3CCCCCC3)sc21 | 1.1 | 0.47
O=C(CC1Oc2ccccc2NC1=O)NCCCN1CCOCC1 (centres undefined) | 1.1 | 2.8
Cc1ccccc1-c1nc(C(=O)NC(C)CCc2ccccc2)c(C)o1 (centres undefined) | 0.93 | -0.45
CCOC(=O)c1ccccc1NC(=O)CSc1nnc(Cc2cccn2C)n1-c1ccc(F)cc1 | 0.76 | -5.8
CCOC(=O)c1c(C)n(-c2ccc(C)cc2C)c2c1cc(O)c1ccccc12 | 0.93 | -2.2
Clc1ccc2nc(-c3ccc(N4CCOCC4)cc3)c(Nc3ccc4c(c3)OCO4)n2c1 | 1 | -0.025
CCCCNS(=O)(=O)c1ccc2nc(-c3cccnc3)cc(C(=O)NCC3CCCN3CC)c2c1 (centres undefined) | 1 | 0.32
Cc1ccc(Cl)cc1NC(=O)CC1Nc2ccccc2NC1=O (centres undefined) | 1 | 0.069
CC1CCC(NC(=O)CC(C(=O)N2CCc3ccccc32)n2ccnc2)CC1 (centres undefined) | 0.77 | -5.7
COc1cccc(-c2cc(C(F)(F)F)n3ncc(C(=O)N(C)CCc4ccccn4)c3n2)c1 | 1 | 0.63
O=C(Nc1ccc(Br)cn1)c1ccccc1O | 0.91 | -1.1
Cc1ccc(-n2nnnc2SCC(=O)Nc2ccc(Br)cc2)cc1C | 1.1 | 1.4
Cc1ccc(C)c(N2CCN(C(=O)C3CCN(C(=O)c4cc5sccc5n4C)CC3)CC2)c1 | 0.85 | -2.8
CCC(C)NC(=O)C1CCC(=O)N1Cc1ccc(C)cc1 (centres undefined) | 1 | 0.56
CCCCN(CC)C(=O)c1cc2c(-c3cccc(OC)c3)nn(C)c2s1 | 0.95 | -0.67
CCN1C(=O)c2ccccc2S(=O)(=O)c2ccc(C(=O)NCc3ccccc3Cl)cc21 | 1 | 0.9
CN1CCN(CCCNC(=O)Cn2nc(Cc3ccncc3)c3ccccc3c2=O)CC1 | 1 | 0.96
Cc1ccc(-n2c3c(cc(C(=O)NCCO)c2=O)C(=O)CCC3)cc1 | 0.95 | -0.23
Cc1cc(Nc2ccccc2N2CCCC2)n2nc(C)nc2n1 | 0.9 | -2.1
COc1cccc(C(=O)Nc2cccc(-c3nc4cc(C)ccc4o3)c2)c1 | 1 | 1.3
COc1ccc(-c2noc(-c3cc(-c4ccccc4)nc4ccccc34)n2)cc1 | 1.2 | 11
COc1ccc(Nc2cc(C(=O)NC3CCCCC3C)c3ccccc3n2)cc1OC (centres undefined) | 0.84 | -1.9
O=C(c1ccc2c(c1)N(Cc1ccccc1F)C(=O)CS2)N1CCC2(CC1)OCCO2 | 1 | 1
COc1ccccc1C(=O)NCCc1nc2ccccc2n1Cc1ccccc1C | 0.94 | -0.81
COc1ccccc1OCCOc1ccc(Cl)cc1-c1nc2sc3c(c2c(=O)[nH]1)CCCC3 | 1.2 | 3.2
CCc1ccc2nc(N3CCC(C(=O)NCc4c(F)cc(F)cc4F)CC3)sc2c1 | 1.2 | 2.7
